INS promoter inh: TRM-6 insulin promoter activity inhibition. TRM-6 cells (human fetal islet line), insulin promoter-eGFP reporter, imaging; reporter expression induced with tamoxifen. AID 1273. inhibition, % at 2 µM. 130,000 compounds, 0.9% hits;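 active = inhibition above the mean plus 3 SD, with well images judged a real hit on visual review, cut at about 60% in these data, passing the limit was not always enough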
RGS16-Gao: RGS16-Galphao interaction regulator (human); O15492+P09471; bead-based flow cytometry RGS16-Galphao binding, fluorescence; actives lie on both sides; binding response (% of control), % at 10 µM; 220,000 compounds, 0.38% hits;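 active = below 25% or above 175%, edge rows of some plates excepted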;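 also: Galphao activated by GDP with aluminum fluoride before binding; 100% = wells without compound and 0% = beads without RGS; some results beyond the cut were filed as inactive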
Target sequence (O15492 whole entry, looked up): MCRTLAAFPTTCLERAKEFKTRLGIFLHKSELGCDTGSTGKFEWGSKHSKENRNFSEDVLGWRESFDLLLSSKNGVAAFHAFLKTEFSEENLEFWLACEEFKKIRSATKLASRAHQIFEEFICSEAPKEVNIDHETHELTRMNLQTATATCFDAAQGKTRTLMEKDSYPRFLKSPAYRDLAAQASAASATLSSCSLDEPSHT
Target sequence (P09471 whole entry, looked up): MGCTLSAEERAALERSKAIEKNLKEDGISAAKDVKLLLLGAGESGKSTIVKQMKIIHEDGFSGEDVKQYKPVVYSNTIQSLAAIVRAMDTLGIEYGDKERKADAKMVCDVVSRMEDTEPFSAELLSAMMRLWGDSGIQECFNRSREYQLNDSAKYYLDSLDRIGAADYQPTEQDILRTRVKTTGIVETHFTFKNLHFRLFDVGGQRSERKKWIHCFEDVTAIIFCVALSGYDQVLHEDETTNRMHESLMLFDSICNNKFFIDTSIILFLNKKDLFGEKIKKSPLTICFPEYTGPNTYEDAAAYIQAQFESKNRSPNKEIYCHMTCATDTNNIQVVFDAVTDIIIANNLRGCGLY
GALR2 agonist: agonists of human galanin receptor 2 (GALR2) | GALR2-expressing cells, agonist activation read-out | activation, %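 (tested at 5 µM)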 | 140,000 compounds, 0.48% hits | AID 803;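 active = above mean plus 3 SD of all compounds, about 5% in these data, not always enough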;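 also: 0% = vehicle buffer wells and 100% = reference agonist at full effect; tested in CHO reporter cells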
Target sequence (O43603 whole entry, looked up): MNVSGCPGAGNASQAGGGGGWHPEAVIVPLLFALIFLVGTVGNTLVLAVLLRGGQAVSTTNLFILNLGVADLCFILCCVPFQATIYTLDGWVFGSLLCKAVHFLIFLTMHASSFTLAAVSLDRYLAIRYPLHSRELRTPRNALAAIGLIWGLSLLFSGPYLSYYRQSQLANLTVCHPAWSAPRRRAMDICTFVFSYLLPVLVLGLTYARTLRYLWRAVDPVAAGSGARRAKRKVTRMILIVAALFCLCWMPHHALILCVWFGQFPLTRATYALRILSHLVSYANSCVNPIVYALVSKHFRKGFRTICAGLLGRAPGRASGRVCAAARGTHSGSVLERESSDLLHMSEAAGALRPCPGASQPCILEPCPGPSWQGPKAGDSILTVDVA
PKD1 kinase inh: inhibitors of human PKD1 kinase; Q15139; PKD1 kinase fluorescence polarization assay; inhibition, %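 (about 10 µM by stock and volumes)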; 200,000 compounds, 0.056% hits;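 active = inhibition of 50% or more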;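 also: controls were vehicle for no effect and a reference inhibitor for full effect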
HSV replic up: HSV replication enhancement | HSV replication augmentation in cells, fold increase | AID 1956 | maximum fold increase | 220,000 compounds, 0.005% hits;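 active = peak rise of 1.5-fold or more in the series; tested in PC3 cells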;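 also: first round at 10 µM; read as green reporter fluorescence; hits show the peak of a series up to 25 µM; 1 = signal of infected wells without compound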
INS promoter inh cell count: further read-out of INS promoter inh, marked with its call; normalized cell count, %; measured here: cell count, toxicity; reference of the scale not given here;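 cells exposed to compound for 48 h; stained nuclei by imaging scaled within each plate; lower means fewer cells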
HSV replic up primary fold: second read-out of HSV replic up, no call of its own (marks repeat the call); fold increase; compound at 10 µM; measured here: primary screen fold increase 10 uM; tested in PC3 cells;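 GFP signal in the first replicate; 1 = infected wells without compound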
The depositor's hits bear a star; i = inactive; . = not tested or not shown.

The line under a structure holds: INS promoter inh	GALR2 agonist	HSV replic up primary fold	INS promoter inh cell count	PKD1 kinase inh	HSV replic up	RGS16-Gao
COc1ccc(N2CCN(S(=O)(=O)c3ccc(OC)cc3)CC2)cc1
→ 30	-1.6	0.77	144	0	i	104
COc1cc(/C=C2/NC(=O)N(Cc3ccccc3F)C2=O)ccc1O
→ .	.	0.83	.	6	i	100
OC(CNCC1(N2CCCCC2)CCCCC1)COc1ccc(Cl)cc1Cl (centres undefined)
→ .	.	0.88	.	-3	i	102
O=C(c1ccccc1Sc1c(Cl)cccc1[N+](=O)[O-])N1CCOCC1
→ 13	-0.1	0.94	146	-13	i	108
Cc1ccccc1-n1c(C)cc(/C=N/Nc2ccc([N+](=O)[O-])cn2)c1C
→ -61	-0.9	1.2	116	-6	i	101
COc1cccc(OCCCOc2ccccc2C(C)C)c1
→ .	-2.6	0.91	.	-4	i	96
CC(C)NC(=O)CSc1nnc(-c2ccc(C(C)(C)C)cc2)n1C
→ 45	2.6	1.1	88	-1	i	98
Cc1ccc2[nH]c(C(=O)NN=C3CCCCC3)c(-c3ccccc3)c2c1
→ .	.	0.8	.	-4	i	96
Cc1ccc2[nH]c(O)c(N=Nc3nc4ccccc4s3)c2c1
→ .	.	1.2	.	.	i	102
CC(=O)N(Cc1cc(=O)[nH]c2ccccc12)c1ccc(C)cc1
→ 56	-1.2	0.96	114	-5	i	103
COc1ccc(N2C(=O)CC(N(CCc3ccccc3)C(=O)/C=C/C(=O)O)C2=O)cc1 (centres undefined)
→ -17	.	0.95	113	-4	i	90
O=C(O)c1ccccc1C(=O)NCc1ccccc1
→ 14	-1.0	0.82	162	5	i	111
COC(/C=C/Nc1ccc(Br)cc1)=C(C#N)C#N
→ .	-1.9	0.97	.	-9	i	114
CCC(=O)NC1=C(Cl)C(=O)C(NC(=O)CC)=C(Cl)C1=O
→ .	.	1.1	.	.	i	8.6*
CCN(CC)S(=O)(=O)c1ccc(O)c(C(=O)OCC(=O)Nc2ccc(OC(F)(F)F)cc2)c1
→ 11	.	1	82	2	i	98
Cc1cccn2cc(CCNS(=O)(=O)c3cccc([N+](=O)[O-])c3)nc12
→ .	.	0.96	.	.	i	86
CCn1c(SCC(=O)O)nnc1-c1ccccc1
→ -38	-1.1	0.97	111	-5	i	97
Cc1ccccc1-n1c(C)nnc1SCC(=O)NNC(=O)c1ccccc1
→ 31	0.9	1.1	138	3	i	98
CC1(C)CC(=O)C2=C(C1)OC(N)=C(C#N)C2CCc1ccccc1 (centres undefined)
→ 6	-0.6	1	91	6	i	100
CCOc1ncccc1C(=O)Nc1ccc(F)cc1
→ .	.	1	.	2	i	97
COc1ccc(CCNC(=O)NC2CCCCC2)cc1OC
→ 14	-3.5	0.95	97	-6	i	94
COc1ccc(CC2(CO)CCN(Cc3cnn(-c4ccccc4OC)c3)CC2)cc1
→ .	.	0.96	.	-5	i	96
C=CCOc1nc(N2CCCC2)nc(N2CCCC2)n1
→ -12	-0.6	0.95	105	-6	i	99
O=C(Cc1ccccc1)N1CCN(S(=O)(=O)c2ccc([N+](=O)[O-])cc2)CC1
→ -80	.	1	115	-6	i	102
CN1/C(=C\C(=O)c2oc3ccccc3c2N)C(C)(C)c2ccccc21
→ -34	-1.3	0.97	83	3	i	106
COc1cccc(C(=O)CSc2nnc(-c3cccs3)o2)c1
→ -14	-2.8	0.85	124	0	i	106
Cc1ccc(OC(=O)c2sc(Cl)nc2C)cc1C
→ -7	0.7	0.82	103	2	i	102
COc1ccccc1C(=O)Oc1ccc(C(C)C)cc1
→ 13	-2.8	1.2	118	-7	i	100
Cn1cccc1C(C#N)(CC#N)c1cccc(F)c1C#N (centres undefined)
→ -8	.	0.99	72	0	i	103
CCOC(=O)C1=C(Nc2cccc(Cl)c2)OCC1=O
→ -19	-1.8	0.98	100	-5	i	103

Pulled one by one from the list above, seven records:
The line under a structure holds: INS promoter inh	GALR2 agonist	HSV replic up primary fold	INS promoter inh cell count	PKD1 kinase inh	HSV replic up	RGS16-Gao
COc1ccccc1C(=O)Oc1ccc(C(C)C)cc1
→ 13	-2.8	1.2	118	-7	i	100
Cc1ccc2[nH]c(C(=O)NN=C3CCCCC3)c(-c3ccccc3)c2c1
→ .	.	0.8	.	-4	i	96
CCn1c(SCC(=O)O)nnc1-c1ccccc1
→ -38	-1.1	0.97	111	-5	i	97
Cc1ccccc1-n1c(C)cc(/C=N/Nc2ccc([N+](=O)[O-])cn2)c1C
→ -61	-0.9	1.2	116	-6	i	101
O=C(c1ccccc1Sc1c(Cl)cccc1[N+](=O)[O-])N1CCOCC1
→ 13	-0.1	0.94	146	-13	i	108
O=C(O)c1ccccc1C(=O)NCc1ccccc1
→ 14	-1.0	0.82	162	5	i	111
OC(CNCC1(N2CCCCC2)CCCCC1)COc1ccc(Cl)cc1Cl (centres undefined)
→ .	.	0.88	.	-3	i	102

(cont.)
The line under a structure holds: INS promoter inh	GALR2 agonist	HSV replic up primary fold	INS promoter inh cell count	PKD1 kinase inh	HSV replic up	RGS16-Gao
CCCc1[nH]nc2c1C(Cc1ccccc1)C(C#N)=C(N)O2 (centres undefined)
→ .	-0.3	0.94	.	-4	i	105
CC(=O)c1c(C)[nH]c(C(=O)OCC(=O)NCCc2ccc(F)cc2)c1C
→ .	-1.0	0.88	.	1	i	104
CCNC(=S)Nc1ccc(Cl)c([N+](=O)[O-])c1
→ 18	.	0.96	199	-3	i	106
CC1CCCN(C(=O)c2ccc(S(=O)(=O)N3CCC(c4nc5ccccc5s4)CC3)cc2)C1 (centres undefined)
→ 68	-1.5	0.78	67	-6	i	.
COc1ccc(CCNC(=O)C(=O)N/N=C/c2cccs2)cc1OC
→ 11	.	1	124	2	i	106
CC(C)n1cc(/C=C2/NC(=O)N(c3cccc(Cl)c3)C2=O)c2ccccc21
→ -66	0.2	0.72	145	-6	i	108
CC(C)C(C(=O)NC1CCCCC1)N(CC1CCCO1)C(=O)CNS(=O)(=O)c1ccc(F)cc1 (centres undefined)
→ .	-1.2	0.98	.	-8	i	104
COc1ccc(C2CC2/C(C)=N/OC(=O)C2CC2)cc1 (centres undefined)
→ .	.	0.95	.	1	i	96
CC(C)CN1C(=O)c2ccc(C(=O)Nc3ccncc3)cc2C1=O
→ -7	-0.7	0.97	63	-1	i	92
CCOc1ccc(S(=O)(=O)N/N=C2/CCCC(=O)C2)cc1
→ 37	0.3	0.93	121	-2	i	101
O=C(Nc1ccc([N+](=O)[O-])cc1)c1ccccc1F
→ 14	.	0.94	137	-5	i	103
CC(C)OCCCN1CN(S(=O)(=O)c2cccs2)c2nc3ccccc3nc21
→ .	.	0.91	.	.	i	101
Cc1ccccc1OCC(=O)N(Cc1cccs1)C1CCS(=O)(=O)C1 (centres undefined)
→ 17	-0.5	0.88	63	-15	i	99
CCOc1cc(C(=O)Nc2ccc(N3CCN(S(C)(=O)=O)CC3)cc2)cc(OCC)c1OCC
→ 0	0.5	0.93	134	0	i	100
CC(C)Cc1nc2c(nnn2Cc2ccccc2F)c(=O)[nH]1
→ .	.	1	.	.	i	98
Cc1cc(C(=O)CN2C(=O)NC3(CCCCC3C)C2=O)c(C)n1Cc1cccs1 (centres undefined)
→ -43	-0.3	0.77	90	6	i	100
CCc1nnc(N/N=C/c2ccc(N3CCC(C)CC3)c([N+](=O)[O-])c2)n1N
→ -43	-1.0	0.96	87	-12	i	107
C=CCn1c(SCC(=O)c2ccc(F)cc2)nnc1-c1ccc2c(c1)OCO2
→ .	.	0.92	.	-1	i	100
CCCNC(=O)COc1cccc(C(=O)NCc2ccccc2)c1
→ -6	0.8	0.97	107	1	i	109
CC(C)C(=O)N(Cc1cc(=O)[nH]c2ccccc12)c1ccccc1
→ .	-0.3	1	.	-6	i	104
COc1ccc(C)cc1NC(=O)c1ccc(-c2ccc(C(C)=O)cc2)o1
→ -45	.	0.87	136	1	i	111
COCCN=C1OC(=O)N2C(=O)C3=C4[C@@H](C[C@H]5C(=O)N(c6ccccc6)C(=O)[C@H]5[C@H]4[C@@]12Cc1ccccc1)[C@H]1C(=O)N(c2ccccc2)C(=O)[C@H]1[C@H]3C
→ .	.	1.1	.	.	i	105
COc1cc(CNc2ccc(N3CCOCC3)cc2)cc(Br)c1OC
→ 21	.	0.88	94	-6	i	102
Cc1cccc2c1OCC/C2=N\NC(=O)COc1ccccc1
→ 4	-2.2	1	102	-7	i	99
Cc1ccc(Nc2nnc(SCC(=O)NCCN3C(=O)CSC3=O)s2)cc1C
→ .	-0.3	1.2	.	-5	i	83
O=C(CCc1c[nH]c2ccccc12)N1CCN(c2ccc(F)cc2)CC1
→ .	.	1.2	.	-7	i	99
CCOc1ccc(NC(=NCc2ccc3c(c2)OCO3)SC2CC(=O)N(c3ccc(C(=O)O)cc3)C2=O)cc1 (centres undefined)
→ -20	-0.3	0.83	139	8	i	104
c1coc(-c2nc(-c3ccco3)c(-c3ccco3)nc2-c2ccco2)c1
→ .	1.0	1.1	.	14	i	74
CCn1c(SCC(=O)c2ccccc2)nnc1-c1ccoc1C
→ 58	1.0	0.96	117	-1	i	99
O=C(C1CCCCN1S(=O)(=O)c1ccccc1)N1CCN(Cc2ccccc2)CC1 (centres undefined)
→ -20	-0.1	1.1	127	-2	i	104
CC(C)Cc1nc2oc3c(NCCCN4CCOCC4)ncnc3c2c2c1CCC2
→ 28	-1.9	0.88	145	-9	i	103
CC1=C(C(N)=O)C(c2cccc(O)c2)n2nc(CCCO)nc2N1 (centres undefined)
→ .	-1.3	1	.	-6	i	111
COc1ccccc1C1N(c2ccc(F)cc2)C(=O)C2CCCN21 (centres undefined)
→ -25	-3.2	0.97	155	-9	i	104
COc1cccc(-c2nc3ccccc3c(=O)n2NC(=O)c2cccnc2Cl)c1
→ 33	-1.1	0.93	107	-10	i	94
COCCN1CN=C(Nc2nc3ccccc3s2)NC1
→ 47	-3.8	0.99	46	-24	i	98
O=C(CCCCCn1nnc2ccccc2c1=O)N[C@H](C(=O)O)c1ccccc1
→ .	.	0.96	.	.	i	98
COc1ccc2c(c1)C(=NNC(=O)c1ccccn1)c1cc(OC)ccc1-2
→ .	-1.5	0.8	.	-7	i	95
Cc1ccc2nc(/C(C#N)=C\c3cc(C)n(-c4cccc([N+](=O)[O-])c4)c3C)[nH]c2c1
→ 0	2.3	0.78	73	3	i	98
CCOC(=O)CSC1=C(C#N)C(c2ccc3c(c2)OCO3)CC(=O)N1 (centres undefined)
→ 31	-2.1	0.88	112	-4	i	97
COc1ccccc1NC(=O)COC(=O)C1CC2C=CC1C2 (centres undefined)
→ -67	.	0.94	131	-9	i	100
COc1ccc(C(CC(=O)NCC(OC)OC)NS(=O)(=O)c2ccc(Cl)cc2)cc1 (centres undefined)
→ .	.	0.97	.	-5	i	94
COc1ccc(NC(=O)COc2ccc(N(C)S(=O)(=O)c3ccc(C)cc3)cc2)cc1
→ 31	-2.8	0.95	88	-8	i	112
CN(C)CCCN(C(=O)COc1ccc(Cl)cc1)c1nc2c(F)cccc2s1
→ 8	.	1	62	-13	i	98
O=C(Cn1c(=O)n(Cc2ccco2)c(=O)c2c3c(sc21)CCCCC3)c1ccccc1
→ -44	-2.5	1.1	192	-11	i	97
COc1ccc(S(=O)(=O)N2CCCCC2)cc1-n1cnnn1
→ .	.	0.87	.	0	i	101

Screening data deposited in PubChem by several laboratories.
